Mtb hypoxia inh = inhibitors of hypoxia-regulated fluorescent reporter in Mycobacterium tuberculosis | 0.1% of 300,000 active | fluorescence inhibition, % (test concentration not listed) | M. tuberculosis hypoxia-regulated fluorescent reporter, fluorescence;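 active means 35 to 45% if threefold the growth effect, above 45% if 1.5-fold the growth effect; inactive means the rest, general growth blockers included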;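 further: wells of about 50 µL received 100 nL stock; 0% = vehicle wells and 100% = reference inhibitor wells; whole bacteria with a GFP reporter of the hypoxia response; strong numbers were not always called active; many hits fall short of the cut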
Autofluor counter = flagged as autofluorescent in microsphere protease counterscreen; compound autofluorescence counterscreen, microsphere flow cytometry; hits give high values; fluorescence intensity (no concentration beside the values); 3.1% of 360,000 active; AID 624483;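 active means at least 3 SD above the mean of all compounds, about 16000 in these data; inconclusive means too few beads counted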;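 further: 100 nL of 1 mM stock went into each well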
Sa ugtP lethal = kills S. aureus RN4220 lacking UgtP; S. aureus RN4220 ugtP deletion, OD600 growth, 16 h; some inactives read as strong as hits; AID 1259309; growth inhibition, % (concentration not given with the values); 0.54% of 330,000 active;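 active means z-score under -3 and OD600 up to 0.15 on both plates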;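 further: plate controls were untreated wells for no effect and antibiotic for full effect; wells of about 80 µL received 100 nL stock; the first replicate is given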
BJeLR lethal = BJeLR cell viability loss | BJeLR (HRASV12) viability, CellTiter-Glo ATP luminescence, 48 h; reference of the scale not given here | inhibition, % (no concentration beside the values) | 0.17% of 300,000 active;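 active means replicate mean above 50%; inconclusive means above 50% but judged a plate artefact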;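 further: 50 nL library stock added to about 25 µL; numbers are from one replicate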
PrP 5UTR inh = suppresses PrP 5' UTR mRNA reporter expression; cell-based PrP 5' UTR mRNA reporter, plate reader; inhibition, % (test concentration not listed); 0.35% of 340,000 active; AID 488862;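 active means every replicate at 50% or more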;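 further: 0 = median of the neutral control wells; tested in H4 reporter cells; numbers are from one replicate; inactives centre near -14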
Sa RN4220 lethal = S. aureus RN4220 growth inhibition | OD600, 16 h | inhibition, % (concentration not given with the values) | 0.33% of 330,000 active;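 active means z-score of -3 or lower and OD600 up to 0.18 on both plates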;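 further: plate controls were untreated cells for no effect and reference antibiotic for full effect; stock transfer was 100 nL into about 80 µL; one replicate is shown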
Mtb hypoxia inh growth = recorded beside Mtb hypoxia inh, whose call it bears; growth inhibition, %; measured here: M. tuberculosis growth (absorbance);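 0% = vehicle and 100% = reference antibiotic; read after six days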
Numbers without * were called inactive; u = inconclusive; x = not tested or not shown.

Value order: Mtb hypoxia inh, Mtb hypoxia inh growth, Autofluor counter, Sa ugtP lethal, BJeLR lethal, PrP 5UTR inh, Sa RN4220 lethal
Cc1ccnc(NC(=O)c2ccc(S(=O)(=O)N3CCC(C)CC3)cc2)c1
→ 5, 4, 5886, 5, -10, -54, -0.5
CCCn1ncc(CN2CCC(n3nccc3NC(=O)c3ccccc3Cl)CC2)c1C
→ -6, -3, u, -4, -3, 2, -2.1
COc1ccc(NC(=O)Nc2cccc(C(F)(F)F)c2)cn1
→ 5, 10, 3476, -24, 4, -14, -2.6
Cc1cc(NC(=O)CS(=O)(=O)c2ccc(F)cc2)no1
→ -1, 2, x, 0, 6, 11, 0.9
CCN(CC)c1ccc2c(Cl)cc(=O)oc2c1
→ x, x, x, -3, -10, x, 10
Oc1c(C2=NCCNC(C(F)(F)F)=C2)ccc2ccccc12
→ 16, 1, 3156, -18, 7, -111, 0.1
N#C/C(=N\Nc1ccc(S(=O)(=O)N2CCOCC2)cc1)C(N)=S
→ x, x, 3760, x, 0, 7, x
Cc1csc(=Nc2ccccc2)n1CCCN1CCCC1=O
→ -7, -3, 4092, 12, -5, -29, 4.9
CN(C(=O)COC(=O)c1cccc(S(=O)(=O)N2CCCCCC2)c1)C1CCS(=O)(=O)C1 (configuration not stated)
→ -8, -6, 4134, 4, -3, -20, -0.6
Cc1ccc(-c2nnn(CC(=O)N(CC(=O)NCC3CCCO3)c3ccccc3)n2)o1 (configuration not stated)
→ 3, 7, 7855, -1, 0, -52, 1.8
Cc1cc(NC(=O)CSC2=NS(=O)(=O)c3cc(F)ccc3N2)no1
→ 11, 14, u, 17, 8, -7, 11
COc1ccc(-c2cc(C(F)(F)F)c3c(n2)sc2c(O)cc(=O)[nH]c23)c(OC)c1
→ 3, 5, 3243, -12, 7, -3, 11
CC1C=CCC2C(=O)N(c3ccc(OC(=O)c4ccco4)cc3)C(=O)C12 (configuration not stated)
→ 10, 0, 3382, 3, -3, -6, 3.7
O=c1oc2ccccc2c(NCc2ccccc2F)c1[N+](=O)[O-]
→ 2, 12, 1991, 1, 1, -17, 1.5
COc1ccccc1OCCn1cc(C=O)c2ccccc21
→ 12, 12, 3377, 4, 0, -10, 5.5
Cn1nc([N+](=O)[O-])c(C(C#N)c2ccccn2)c(Cl)c1=O (configuration not stated)
→ 22, 14, 2461, 23, x, 9, 0.2
COCC(=O)OCC(=O)Nc1cc(C)c(C)cc1[N+](=O)[O-]
→ -3, 11, 2010, 1, -4, -2, 1.9
CCC(C)NC(=O)c1c(N)n(N=Cc2ccccn2)c2nc3ccccc3nc12 (configuration not stated)
→ -6, -16, x, -31, x, x, -1.2
COC(=O)C1=C(c2ccccc2OCc2ccccc2)CC2CCC1N2C(=O)NCc1ccc(Cl)cc1 (configuration not stated)
→ 8, 10, x, -16, x, x, -8.0
N#CC1=C(SCc2ccccc2)NC2=C(C(=O)CCC2)C1c1ccc2c(c1)OCO2 (configuration not stated)
→ x, x, 3097, 4, -9, -11, 1.6
CCC(C)(CC(=O)N(C)CCC#N)c1ccccc1 (configuration not stated)
→ 5, 2, 6591, 3, -4, -14, 4.2
Cc1ccccc1C(=O)N1CCC(C(=O)Nc2cc(C(F)(F)F)ccc2N2CCCC2)CC1
→ 7, 5, x, 3, -3, -43, 3.8
Cc1ccc2nc(SCC(=O)Nc3ccc(F)cc3F)[nH]c2c1
→ 3, 3, 2392, -12, 1, -14, 2.0
Cc1ccc(CONC(=O)c2ccc(Cl)cc2)cc1
→ -6, 7, 3270, -10, x, -20, -4.2
CCOC(=O)c1nn2c(C(F)(F)F)cc(-c3ccc(OC)cc3)nc2c1Br
→ -2, -2, 3897, -4, -3, -14, 6.9
O=C(NNC(=S)Nc1ccccc1)NNC(=S)Nc1ccccc1
→ -4, -5, 2696, 4, 7, -10, 2.9
O=C1CC(N2CCN(c3ccccc3O)CC2)C(=O)N1Cc1ccccc1 (configuration not stated)
→ 11, 6, 4551, 3, -7, -17, 2.0
CC(C)(C)n1nnnc1C(c1cccs1)N(Cc1ccc(Cl)cc1)CC1CCCO1 (configuration not stated)
→ x, x, 4512, 7, 2, -3, -7.7
CCCCC1=NN2CCS(=O)(=O)N=C2S1
→ -4, -6, 3083, 0, -6, -51, 3.4
O=C1NC(=O)/C(=C\c2ccc(OCc3cccc([N+](=O)[O-])c3)cc2)N1
→ x, x, 3987, x, 7, -93, x

Remaining list, next part:
SMILES	Mtb hypoxia inh	Mtb hypoxia inh growth	Autofluor counter	Sa ugtP lethal	BJeLR lethal	PrP 5UTR inh	Sa RN4220 lethal
COc1ccc(Cl)cc1S(=O)(=O)Nc1cccc(C(=O)O)c1	-2	-9	22133*	-6	8	-30	-1.8
COc1cc(C=CC(=O)O)cc(OC)c1OC	0	2	x	3	x	x	5.2
COc1ccc(N2CCN(S(=O)(=O)CCNC(=O)c3ccc(Br)o3)CC2)cc1	1	-1	4368	10	-5	12	4.9
CCCCNC(=O)N(O)C1N(/N=C/c2ccc(N(C)C)cc2)C(=S)SC1(C)C (configuration not stated)	x	x	3504	x	-4	-7	x
O=[N+]([O-])c1ccccc1S(=O)(=O)n1cnc2ccccc21	5	6	3554	-2	0	-33	8.0
Cc1ccc(-c2nnc(SCC#CCOC(=O)c3ccco3)o2)cc1	x	x	4372	7	-5	-35	6.6
CC(=O)N(c1ccc(N(C(C)=O)S(=O)(=O)c2cccs2)cc1)S(=O)(=O)c1cccs1	0	10	9410	-9	-3	-37	6.1
CC1Cc2ccccc2N1C(=O)Cn1cnc2ccccc21 (configuration not stated)	-1	5	4744	0	6	-13	2.2
Cc1ccc(Cl)cc1NC(=O)Nc1c(C)n(C)n(-c2ccccc2)c1=O	-7	-5	4165	-6	0	-17	-4.8
CC(C)(C)c1nnc(SCC(=O)c2ccccc2)n(N)c1=O	-11	-7	2223	0	7	-12	-2.5
Cc1ccc(-n2c(COc3ccccc3)n[nH]c2=S)cc1	8	1	5091	-2	3	-26	3.2
C=CCNc1nc(-c2cccc(OC)c2O)nc2ccccc12	-7	-1	14420	-2	1	-8	5.4

A portion from further up:
SMILES	Mtb hypoxia inh	Mtb hypoxia inh growth	Autofluor counter	Sa ugtP lethal	BJeLR lethal	PrP 5UTR inh	Sa RN4220 lethal
CC1Cc2ccccc2N1C(=O)Cn1cnc2ccccc21 (configuration not stated)	-1	5	4744	0	6	-13	2.2
Cc1ccc(Cl)cc1NC(=O)Nc1c(C)n(C)n(-c2ccccc2)c1=O	-7	-5	4165	-6	0	-17	-4.8
CC(C)(C)c1nnc(SCC(=O)c2ccccc2)n(N)c1=O	-11	-7	2223	0	7	-12	-2.5
Cc1ccc(-n2c(COc3ccccc3)n[nH]c2=S)cc1	8	1	5091	-2	3	-26	3.2
C=CCNc1nc(-c2cccc(OC)c2O)nc2ccccc12	-7	-1	14420	-2	1	-8	5.4

Continuation:
SMILES	Mtb hypoxia inh	Mtb hypoxia inh growth	Autofluor counter	Sa ugtP lethal	BJeLR lethal	PrP 5UTR inh	Sa RN4220 lethal
CN(C)CCNC(=O)C(=O)C1C(=O)Nc2ccccc21 (configuration not stated)	16	14	x	1	7	x	1.1
CCOC(=O)c1c(-c2ccc(-c3ccccc3)cc2)csc1NC(=O)CCN1CCOCC1	x	x	1984	9	-3	-11	1.3
COc1ccc(N2CCN(C(CNS(=O)(=O)c3cccs3)c3cccnc3)CC2)cc1 (configuration not stated)	2	2	3157	-6	-2	-16	-14
CC(=O)c1c(C)[nH]c(C(=O)OC(C)C(=O)Nc2cc(S(=O)(=O)N3CCCCC3)ccc2Cl)c1C (configuration not stated)	3	0	7170	0	-5	-1	13
CC(C)CCN=CC1=C(O)CC(c2ccccc2)CC1=O (configuration not stated)	x	x	2700	x	11	-17	x
CN1CCCC1CCNS(=O)(=O)c1ccc(Br)cc1 (configuration not stated)	x	x	6838	-4	-2	-21	0.0
CNCCC=C1c2ccccc2CCc2ccccc21	7	3	4330	-3	-8	0	-0.8
CCc1c(C)nc2ncnn2c1Nc1ccc(C)cc1	11	14	3741	14	-3	-30	3.6
CCOc1ccc(C/C(N)=N/n2cnnc2)cc1	1	1	5737	7	10	-36	-0.4
Cc1nc2c(n1C1CCCCC1)C(=O)c1ccccc1C2=O	-13	0	10195	-3	13	1	17
O=C(CN(CCO)c1ccccc1)NC12CC3CC(CC(C3)C1)C2	4	9	4067	-8	12	-2	6.1
CCSc1ccccc1C(=O)NCc1cccnc1	13	3	3171	7	0	-15	-0.7
O=C1OC2(c3ccccc31)c1ccccc1-c1ccccc12	12	-4	3753	53	x	-17	-9.5
COC(=O)c1ccc(S(=O)(=O)NCc2ccco2)o1	5	4	4460	9	4	-25	3.6
COC(=O)CCC(=O)N(C)CC1CCCN(CCc2cccc(C(F)(F)F)c2)C1 (configuration not stated)	-7	1	4509	-1	6	-13	6.0
CCCc1nc2sc3c(c2c(=O)n1NC(=O)CCC(=O)OC)CCCC3	1	-3	4548	7	-3	-16	3.2
CCOC(=O)c1[nH]c(C)c(CN(Cc2ccco2)C(=O)C(F)(F)F)c1C	x	x	4721	6	10	-11	3.1
O=C(CCc1nc2ccccc2c(=O)[nH]1)OCC(=O)N1CCc2ccccc21	3	9	4447	19	-1	-20	4.6
COc1ccc(C(=O)n2c(SC)nc3cc4c(cc32)OCCO4)cc1	8	0	10562	13	3	x	5.8
O=[N+]([O-])c1ccc(NN=Cc2cccc3ccccc23)cc1	18	8	2890	-9	x	-11	-9.3
O=C(NNC(=O)c1ccc(F)cc1)c1ccncc1	11	1	4394	1	-12	-20	2.4
Cc1cccc(C(=O)OC(C)C(=O)Nc2ccc(S(=O)(=O)N3CCCC3)cc2)c1O (configuration not stated)	11	4	u	0	-3	-15	0.0
CCc1ccc(N(C(=O)c2csnn2)C(C(=O)NC2CCCC2)c2cccnc2)cc1 (configuration not stated)	6	1	2892	10	7	-4	6.2
COc1ccc(CNC(=O)CN2C(=O)NC3(CCCCCC3)C2=O)cc1	3	8	3790	2	x	-5	-0.3
CC1CN(Cc2ccccc2)c2nc3c(c(=O)[nH]c(=O)n3C)n2C1 (configuration not stated)	-11	-11	4820	4	-2	-13	3.3
CC1=CC(C)(C)N(C(=O)CN2C(=O)CCC2=O)c2ccccc21	4	11	4517	-3	-2	-16	3.5
CC(/C=C/c1ccccc1)=N/NC(=O)CNC(=O)c1ccc2c(c1)OCO2	x	x	3840	x	-8	-10	x
